Screening results deposited in PubChem BioAssay by Broad Institute.
HIV Env fusion – blocks HIV Env-driven cell-cell fusion; HeLa-JRFL Env/CEM21 cell fusion, luciferase; inhibition, % at 12.3 µM; 360,000 compounds, 1.1% hits; AID 651610;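 active means mean replicate inhibition score of at least 50 and every replicate individually at or above 50; inconclusive means only one of the two criteria met; inactive means mean below 50 and not all replicates reaching 50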;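 further: 0% = plate neutral controls and 100% = maraviroc near 300 nM; one replicate is shown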
Yeast UUG start – alters start codon recognition fidelity in yeast; activity score, % at 18.7 µM; S. cerevisiae UUG-firefly luciferase reporter, luminescence/redox ratio; AID 602363; 350,000 compounds, 0.13% hits;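 active means replicate mean at a twofold rise or more, about +100% in these data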;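 further: firefly luciferase made from a UUG start codon reports start codon fidelity; reporter light over untreated wells divided by growth signal over untreated wells; some hits fall short of that in this replicate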
Active calls of the source: *; ? = inconclusive; [ ] = remark or other dose. Not all compounds are listed. The share of hits here may be higher or lower than overall.

SMILES | HIV Env fusion | Yeast UUG start
COc1ccc(C(=O)N2CCc3ccccc3C2)cc1S(=O)(=O)N1CCCC1 | 13.5 | 5.3
C[C@H]1CN([C@@H](C)CO)C(=O)Cc2cc(NS(=O)(=O)c3cn(C)cn3)ccc2O[C@@H]1CN(C)Cc1ccc(C(=O)O)cc1 | 3.0[16.7 µM] | -25.0
C[C@H](CO)N1C[C@H](C)[C@H](CN(C)S(=O)(=O)c2ccc(Cl)cc2)Oc2ccc(NC(=O)Nc3cccc4ccccc34)cc2CC1=O | 44.0[16.7 µM] | 5.7
O=C(N[C@H]1CC[C@@H](CCNS(=O)(=O)c2ccc(F)cc2)O[C@H]1CO)C1CCCC1 | 15.3[16.7 µM] | 2.5
COc1ccc(NC(=O)Nc2ccc3c(c2)CC(=O)N([C@H](C)CO)C[C@H](C)[C@H](CN(C)C(=O)Nc2ccc(C(F)(F)F)cc2)O3)cc1 | 18.4[16.7 µM] | 9.8
COc1ccc(S(=O)(=O)N(C)C[C@H]2Oc3ccc(NC(=O)NC4CCCCC4)cc3CC(=O)N([C@H](C)CO)C[C@@H]2C)cc1 | 3.6[16.7 µM] | -10.2
Cc1noc(C)c1S(=O)(=O)N(C)C[C@H]1OCCCC[C@@H](C)Oc2ccc(NS(C)(=O)=O)cc2C(=O)N([C@@H](C)CO)C[C@@H]1C | -27.5[16.7 µM] | 25.0
C[C@@H](O)C#Cc1cnc2c(c1)C(=O)N([C@@H](C)CO)C[C@H](C)[C@@H](CN(C)C(=O)CC1CC1)O2 | -4.1[16.7 µM] | -2.8
O=C(C[C@@H]1C=C[C@H](NC(=O)CN2CCOCC2)[C@H](CO)O1)NCc1cccc(F)c1 | -13.1[16.7 µM] | -9.0
C[C@@H]1CN([C@@H](C)CO)C(=O)c2cc(C#CC3CC3)cnc2O[C@@H]1CN(C)C(=O)Cc1ccccn1 | -6.0[16.7 µM] | 2.6
C[C@H]1CN([C@@H](C)CO)C(=O)CCCn2nncc2CO[C@@H]1CN(C)S(=O)(=O)c1ccc(Cl)cc1 | -8.3[16.7 µM] | 6.3
CN1C(=O)c2cc(NC(=O)C3CC3)ccc2OC[C@@H]2O[C@H](CC(=O)NCc3cccc(F)c3)CC[C@H]21 | -13.3[16.7 µM] | 9.2
O=C(C[C@H]1CC[C@H](NC(=O)c2ccc3c(c2)OCO3)[C@H](CO)O1)NCc1ccc(F)cc1 | -14.8[16.7 µM] | -7.1
N#C[C@@H]1[C@@H](c2ccc(-c3cccc(F)c3)cc2)[C@H](CO)N1S(=O)(=O)c1cccc(F)c1 | -6.4[16.7 µM] | -8.9
CN(C)CC(=O)N[C@H]1C=C[C@H](CC(=O)NCCN2CCCCC2)O[C@@H]1CO | -7.0[16.7 µM] | 5.9
CCCNC(=O)N[C@H]1C=C[C@H](CC(=O)NC2CCC2)O[C@@H]1CO | 2.0[16.7 µM] | -6.5
C[C@@H]1CCCCO[C@@H](CN(C)C(=O)Nc2ccc(F)cc2)[C@@H](C)CN([C@@H](C)CO)C(=O)c2cc(NC(=O)Nc3ccccc3)ccc2O1 | -3.1[16.7 µM] | 4.7
COc1ccc(NC(=O)Nc2ccc3c(c2)CC(=O)N([C@H](C)CO)C[C@@H](C)[C@H](CN(C)S(=O)(=O)c2c(C)noc2C)O3)cc1 | -18.4[16.7 µM] | 16.9
C[C@H](CO)N1C[C@H](C)[C@@H](CN(C)Cc2ccncc2)Oc2ncc(C#CC3CC3)cc2C1=O | -17.0[16.7 µM] | 11.4
CNC(=O)C[C@@H]1CC[C@H]2[C@H](COc3ccc(NS(=O)(=O)c4ccccc4C)cc3C(=O)N2C)O1 | 19.2[16.7 µM] | 0.5
C[C@@H]1CN([C@H](C)CO)C(=O)Cc2cc(NC(=O)CCN3CCOCC3)ccc2O[C@@H]1CN(C)C(=O)Nc1cccc2ccccc12 | 16.4[16.7 µM] | 11.2
Cc1noc(C)c1NC(=O)Nc1cccc2c1O[C@@H](CN(C)S(=O)(=O)c1ccc(Cl)cc1)[C@H](C)CN([C@@H](C)CO)C2=O | -2.3[16.7 µM] | 11.4
CNC[C@H]1OCCCC[C@@H](C)Oc2ccc(NC(=O)Nc3ccc(F)cc3)cc2C(=O)N([C@@H](C)CO)C[C@H]1C | 15.5[16.7 µM] | -0.8
C[C@H](CO)N1C[C@H](C)[C@@H](CN(C)CC2CC2)Oc2c(NS(=O)(=O)c3cccs3)cccc2C1=O | -11.4[16.7 µM] | -2.6
CC(C)C(=O)Nc1ccc2c(c1)C(=O)N(C)[C@@H]1CC[C@H](CC(=O)NCc3cccc(F)c3)O[C@H]1CO2 | -27.4[16.7 µM] | 12.0

One compound at a time, from the list above.
Entry for C[C@H](CO)N1C[C@H](C)[C@@H](CN(C)CC2CC2)Oc2c(NS(=O)(=O)c3cccs3)cccc2C1=O → HIV Env fusion = -11.4[16.7 µM]; Yeast UUG start = -2.6
Entry for COc1ccc(C(=O)N2CCc3ccccc3C2)cc1S(=O)(=O)N1CCCC1 → HIV Env fusion = 13.5; Yeast UUG start = 5.3

(listing goes on)
SMILES | HIV Env fusion | Yeast UUG start
C[C@@H]1CN([C@H](C)CO)C(=O)Cc2cc(NC(=O)Cc3ccccc3)ccc2O[C@H]1CN(C)C(=O)Nc1cccc2ccccc12 | 21.0[16.7 µM] | -10.1
COc1ccc(S(=O)(=O)N(C)C[C@H]2OCCCC[C@H](C)Oc3ccc(NC(=O)Nc4c(C)noc4C)cc3C(=O)N([C@@H](C)CO)C[C@@H]2C)cc1 | -34.8[16.7 µM] | 8.8
C[C@H]1CN([C@@H](C)CO)C(=O)c2cc(C3=CCCCC3)cnc2O[C@@H]1CN(C)C(=O)c1ccccn1 | -40.1[16.7 µM] | -2.5
COc1ccc(NC(=O)Nc2ccc3c(c2)CC(=O)N([C@H](C)CO)C[C@@H](C)[C@@H](CN(C)S(=O)(=O)c2cn(C)cn2)O3)cc1 | -5.1[16.7 µM] | -2.8
CO[C@H]1CN(C)C(=O)c2cc(NS(=O)(=O)c3cn(C)cn3)ccc2OC[C@@H](C)NC[C@@H]1C | 11.9[16.7 µM] | -8.0
C[C@@H]1CCCCO[C@H](CN(C)Cc2ccc(C(F)(F)F)cc2)[C@H](C)CN([C@H](C)CO)C(=O)c2cc(NC(=O)c3ccccc3)ccc2O1 | 89.7*[16.7 µM] | 14.1
C[C@@H]1CN([C@@H](C)CO)C(=O)c2cccc(NC(=O)C3CC3)c2O[C@@H]1CN(C)Cc1ccc(C(=O)O)cc1 | 47.6[16.7 µM] | -0.7
N#C[C@H]1[C@H](c2ccc(-c3cccc(F)c3)cc2)[C@H](CO)N1C(=O)c1cccnc1 | 10.3[16.7 µM] | -5.3
C[C@H](CO)N1C[C@H](C)[C@@H](CN(C)C(=O)Nc2ccc(C(F)(F)F)cc2)Oc2ccc(NC(=O)C3CCCCC3)cc2CC1=O | 5.4[16.7 µM] | 1.7
O=C(C[C@@H]1C=C[C@H](NC(=O)c2cccc(F)c2)[C@H](CO)O1)NCc1ccc(Oc2ccccc2)cc1 | ? | -9.2
CN(C)C(=O)C[C@H]1CC[C@H]2[C@@H](COC[C@@H](O)CN2S(=O)(=O)c2ccccc2Cl)O1 | -3.4[16.7 µM] | -7.9
COc1ccc(CN(C)C[C@H]2Oc3c(NS(=O)(=O)c4ccc(OC)cc4)cccc3C(=O)N([C@@H](C)CO)C[C@H]2C)cc1 | 9.1[16.7 µM] | 5.0
COCC(=O)Nc1ccc2c(c1)[C@H]1C[C@@H](CC(=O)NCc3ccc(OC)cc3)O[C@@H](CO)[C@H]1O2 | -23.6[16.7 µM] | -14.1
C[C@@H]1CN([C@@H](C)CO)C(=O)c2cc(NC(=O)Nc3ccc(F)cc3)ccc2O[C@@H](C)CCCCO[C@H]1CN(C)C(=O)Cc1ccccc1 | 10.3[16.7 µM] | -5.7
COc1ccc(S(=O)(=O)N(C)C[C@H]2Oc3c(NS(=O)(=O)c4ccc(Cl)cc4)cccc3C(=O)N([C@@H](C)CO)C[C@H]2C)cc1 | -12.3[16.7 µM] | -8.4
CCCC#Cc1ccc([C@H]2[C@@H](CO)N(C(=O)C3CCCCC3)[C@H]2C#N)cc1 | 11.9[16.7 µM] | 20.6
COc1ccc(S(=O)(=O)Nc2ccc3c(c2)C(=O)N([C@@H](C)CO)C[C@@H](C)[C@H](CN(C)Cc2ccccc2)OCCCC[C@H](C)O3)cc1 | -8.2[16.7 µM] | 10.3
Cc1ccc(S(=O)(=O)Nc2ccc3c(c2)C(=O)N([C@H](C)CO)C[C@H](C)[C@H](CN(C)C(=O)Nc2ccccc2)OCCCC[C@H](C)O3)cc1 | -42.0[16.7 µM] | -3.6
COc1ccc(S(=O)(=O)N(C)C[C@H]2Oc3c(NC(=O)Nc4c(C)noc4C)cccc3C(=O)N([C@H](C)CO)C[C@H]2C)cc1 | -35.6[16.7 µM] | -1.4
C[C@H](CO)N1C[C@H](C)[C@@H](CN(C)Cc2ccc(C(=O)O)cc2)OCCCC[C@H](C)Oc2ccc(NS(=O)(=O)c3ccc(F)cc3)cc2C1=O | -9.3[16.7 µM] | 13.6
Cc1noc(C)c1S(=O)(=O)N(C)C[C@@H]1Oc2ccc(NC(=O)CCCN(C)C)cc2C(=O)N([C@H](C)CO)C[C@@H]1C | 9.5[16.7 µM] | -2.0
C[C@@H]1CN([C@H](C)CO)C(=O)c2cc(NC(=O)Nc3ccc(C(F)(F)F)cc3)ccc2O[C@@H](C)CCCCO[C@@H]1CN(C)S(=O)(=O)c1ccc(F)cc1 | 1.0[16.7 µM] | -15.0
O=C(C[C@@H]1CC[C@@H](NC(=O)c2ccccn2)[C@H](CO)O1)NCc1cc(F)cc(F)c1 | -1.7[16.7 µM] | 2.9
O=C(C[C@H]1CC[C@@H](NC(=O)C2CC2)[C@@H](CO)O1)NCc1ccncc1 | -12.2[16.7 µM] | -15.5
COc1cccc(C#Cc2ccc([C@@H]3[C@@H](C#N)N(C(=O)C4CCOCC4)[C@H]3CO)cc2)c1 | -7.4[16.7 µM] | -6.8

The closing 2 compounds of the section above lead into the next.
SMILES | HIV Env fusion | Yeast UUG start
O=C(C[C@H]1CC[C@@H](NC(=O)C2CC2)[C@@H](CO)O1)NCc1ccncc1 | -12.2[16.7 µM] | -15.5
COc1cccc(C#Cc2ccc([C@@H]3[C@@H](C#N)N(C(=O)C4CCOCC4)[C@H]3CO)cc2)c1 | -7.4[16.7 µM] | -6.8
CCC(=O)N[C@H]1CC[C@@H](CC(=O)NCc2ccc(OC)cc2)O[C@@H]1CO | -7.1[16.7 µM] | -10.4
Cc1noc(C)c1NC(=O)N(C)C[C@@H]1Oc2ccc(NS(C)(=O)=O)cc2CC(=O)N([C@@H](C)CO)C[C@@H]1C | 7.6[16.7 µM] | 12.2
CNC[C@@H]1OCCCC[C@@H](C)Oc2ccc(NC(=O)c3ccccc3)cc2C(=O)N([C@H](C)CO)C[C@@H]1C | 7.2[16.7 µM] | -9.7
COc1ccccc1CNC(=O)C[C@@H]1C[C@@H]2c3cc(NC(=O)NC4CCCC4)ccc3O[C@@H]2[C@H](CO)O1 | 6.4[16.7 µM] | -12.4
C[C@@H]1CN([C@@H](C)CO)C(=O)c2cc(-c3cccnc3)cnc2O[C@H]1CN(C)Cc1ccc(-c2ccccc2)cc1 | -11.4[16.7 µM] | 4.1
NC(=O)NCC#Cc1ccc2c(c1)[C@]1(C(=O)N2)[C@H](C(N)=O)[C@H]2C(=O)O[C@H](c3ccccc3)[C@H](c3ccccc3)N2[C@@H]1c1ccccc1OCCO | -4.8[16.7 µM] | 31.3
C[C@@H]1CN([C@H](C)CO)C(=O)c2cccc(NC(=O)Nc3ccccc3)c2O[C@@H]1CN(C)Cc1ccc(C(=O)Nc2ccccc2N)cc1 | -28.4[16.7 µM] | -4.8
COc1ccc(S(=O)(=O)Nc2ccc3c(c2)C(=O)N([C@@H](C)CO)C[C@@H](C)[C@@H](CN(C)C(=O)Nc2ccc(F)cc2)OCCCC[C@H](C)O3)cc1 | 2.5[16.7 µM] | -1.7
COc1ccc(NC(=O)N(C)C[C@H]2Oc3cc(-c4ccc(C)cc4)ccc3S(=O)(=O)N([C@@H](C)CO)C[C@H]2C)cc1 | -37.8[16.7 µM] | -2.2
C[C@@H]1CCCCO[C@@H](CN(C)C(=O)C2CCCCC2)[C@H](C)CN([C@H](C)CO)C(=O)c2cc(NS(=O)(=O)c3cn(C)cn3)ccc2O1 | -5.2[16.7 µM] | -0.3
C[C@H](CO)N1C[C@H](C)[C@H](CN(C)C(=O)C2CCCCC2)OCCCC[C@H](C)Oc2ccc(NC(=O)Nc3ccccc3)cc2C1=O | 59.7*[16.7 µM] | 17.8
C[C@@H]1CN([C@H](C)CO)S(=O)(=O)c2ccc(-c3ccccc3F)cc2O[C@H]1CN(C)Cc1cncnc1 | 15.0[16.7 µM] | -5.7
CO[C@H]1CN(C)C(=O)c2cc(NS(=O)(=O)c3ccc(C)cc3)ccc2OC[C@H](C)N(Cc2nccs2)C[C@@H]1C | 36.8[16.7 µM] | 3.4
C[C@@H]1CN([C@H](C)CO)C(=O)c2cc(NS(C)(=O)=O)ccc2O[C@H]1CN(C)Cc1ccc(C(F)(F)F)cc1 | 25.6[16.7 µM] | -12.1
C[C@@H]1CN([C@H](C)CO)C(=O)Cc2cc(NC(=O)CCN3CCOCC3)ccc2O[C@H]1CN(C)Cc1ccccc1 | 30.6[16.7 µM] | 14.6
C[C@@H]1CN([C@H](C)CO)C(=O)c2cccc(NC(=O)Nc3ccc4c(c3)OCO4)c2O[C@@H]1CN(C)C(=O)Nc1cccc2ccccc12 | -33.1[16.7 µM] | 3.3
O=S(=O)(N[C@@H]1CC[C@@H](CCn2cc(-c3cccnc3)nn2)O[C@@H]1CO)c1ccc(Cl)cc1 | -5.5[16.7 µM] | -0.3
